# 26S disassembly: blocks ATP-dependent breakdown of the yeast 26S proteasome; anti-FLAG beads, GFP-proteasome disassembly, flow cytometry; 24,000 tested, 0.2% active; inhibition of disassembly, % (no concentration beside the values);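 active means above 40%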;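 further: plate controls were ATP control with full disassembly for no effect and ATP-gamma-S intact proteasomes for full effect; higher percent means more bead fluorescence retained so stronger block of disassembly; stock transfer was 100 nL into about 10 µL; wells with too few beads may also be inconclusive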
# VCAM-1 up: boosters of cytokine-driven VCAM-1 levels – cell-based, plate reader, pooled HUVEC, TNFa stimulus (AID 455) | 10,000 tested, 0.2% active | augmentation, % at 5 µM | HUVEC TNFa-induced VCAM-1 immunofluorescence, plate reader; numbers were filed only for top-ranked candidate wells;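 active means a compound raising TNF-alpha-driven VCAM-1 surface staining, with its hit status upheld on visual or statistical review; inactive means the rest, including hits rejected on review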;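 further: 0% = TNFa with vehicle and 100% = strongest image-checked hit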
# Numbers without * were called inactive; i = inactive; x = not tested or not shown.
# The opening 6 entries (preview)
# Sequence of screens – VCAM-1 up	26S disassembly
> CCCCn1c(=O)c(Cc2ccccc2)c(O)c2ccccc21
 : x	0.6
> Cc1cccc(Nc2nc3c(c(=O)n(C)c(=O)n3C)n2Cc2ccccc2)c1
 : i	-2.6
> C=CCSc1nc(N)c2c(C)c(C)sc2n1
 : i	-1.3
> O=C(CSc1nnnn1-c1ccc2c(c1)OCO2)NCc1cccs1
 : i	0.3
> O=c1cc(N2CCc3ccccc32)[nH]c(=O)n1-c1ccccc1
 : x	1.0
> N#C/C(C(=O)N1CCOCC1)=C1/SC=C(c2ccccc2)N1c1ccccc1
 : i	2.9

# The listing, from the start:
# Sequence of screens – VCAM-1 up	26S disassembly
> CCCCn1c(=O)c(Cc2ccccc2)c(O)c2ccccc21
 : x	0.6
> Cc1cccc(Nc2nc3c(c(=O)n(C)c(=O)n3C)n2Cc2ccccc2)c1
 : i	-2.6
> C=CCSc1nc(N)c2c(C)c(C)sc2n1
 : i	-1.3
> O=C(CSc1nnnn1-c1ccc2c(c1)OCO2)NCc1cccs1
 : i	0.3
> O=c1cc(N2CCc3ccccc32)[nH]c(=O)n1-c1ccccc1
 : x	1.0
> N#C/C(C(=O)N1CCOCC1)=C1/SC=C(c2ccccc2)N1c1ccccc1
 : i	2.9
> Cc1cc(OCC(=O)Nc2ccc3oc(-c4ccncc4)nc3c2)ccc1Cl
 : i	0.8
> O=C(c1ccc(-c2ccccc2)cc1)N1CCN(c2ncccn2)CC1
 : i	1.3
> CC(C)CC(c1nnnn1C(C)(C)C)N1CCN(C2CCCC2)CC1 (stereo unspecified)
 : i	6.2
> COc1ccccc1S(=O)(=O)Cc1ccc(C(=O)N2CCN(c3ccccn3)CC2)o1
 : i	0.2
> CCn1cc(C(=O)Nc2ccc(NC(=O)c3ccco3)cc2)c(=O)c2ccc(C)nc21
 : x	-1.4
> NC(=O)c1c(-c2ccccc2)oc2ccc(O)cc12
 : i	0.5
> Cn1c(=O)oc2cc(S(=O)(=O)N3CCCC3)ccc21
 : x	-0.3
> CCCc1ccc(C(C)NC(=O)c2cnccn2)cc1 (stereo unspecified)
 : i	11
> c1csc(-c2nc3nc4ccccc4nc3n2Cc2ccc3c(c2)OCO3)c1
 : i	2.1
> Cn1c(=O)oc2cc(S(=O)(=O)NCCC(=O)NC3CCCc4ccccc43)ccc21 (stereo unspecified)
 : x	0.6
> COc1ccc(-c2noc(-c3ccccc3C(=O)Nc3cccnc3)n2)cc1
 : i	-0.8
> O=C(NCCN1CCOCC1)c1noc2c1CCc1ccccc1-2
 : x	-0.1
> N#CCC(=O)N1CCn2c1nc1ccccc12
 : i	1.6
> Cc1ccc(N)cc1CN1CCCC1=O
 : x	0.0
> O=C(CCCn1c(=O)[nH]c2cc(Cl)ccc2c1=O)NCCCN1CCCC1
 : x	0.4
> CC(=O)Nc1ccc2nc(-c3cccnc3)[nH]c2c1
 : i	2.5
> CC1CCN(c2nnc(N)s2)CC1
 : x	-1.0
> COc1ccc(NC(=O)Cn2nnc(C(=O)NCc3ccccc3)c2N)cc1Cl
 : x	-0.7
> COCCCNC(=O)CCn1c(=O)c2ccccc2n(CC(=O)Nc2cc(Cl)ccc2C)c1=O
 : x	-1.1
> Cc1ccc(SCc2[nH]nc3c2C(c2ccc(C)o2)C(C#N)=C(N)O3)cc1 (stereo unspecified)
 : i	-0.1
> CCOc1ccc(-c2nnc(N)s2)cc1
 : i	0.7
> Cc1cc(=O)n2[nH]c(-c3ccccc3Cl)cc2n1
 : x	4.7
> Cc1ccc(S(=O)(=O)N2CCCC(c3nnc4n3-c3ccccc3SC4)C2)cc1 (stereo unspecified)
 : i	-1.3
> COc1ccccc1C(=O)N1CCN(CCc2ccccc2)CC1
 : i	1.4
> COC(=O)C(CC(C)C)NC(=O)CSc1nc(-c2ccccc2)c(C#N)c(=O)[nH]1 (stereo unspecified)
 : i	-0.4
> COc1cc(OC)c2c(c1)OC(c1ccc(OC)c(OC)c1)C(O)C2=O (stereo unspecified)
 : i	0.6
> COc1ccc(NS(=O)(=O)c2ccc(OC)c3ccccc23)cn1
 : x	-0.8
> COC(=O)c1ccccc1Nc1cc(C)nc2nc(C)nn12
 : x	-0.4
> O=C(COc1cccc(Oc2ccccc2)c1)Nc1ncccn1
 : i	-0.3
> COc1ccc(C2c3c(-c4ccccc4O)n[nH]c3C(=O)N2CCc2ccc(OC)c(OC)c2)cc1 (stereo unspecified)
 : i	-1.8
> O=C(NCC1CCCO1)C1CC(=O)N(C2CCCCCC2)C1 (stereo unspecified)
 : x	-0.7
> COc1ccc(N(CC(=O)N2c3ccccc3CC2C)S(=O)(=O)c2c(C)nn(C)c2C)cc1 (stereo unspecified)
 : x	-0.9
> Cc1nc(CNS(=O)(=O)c2ccc(Oc3ccccc3)cc2)cs1
 : x	-2.0
> COc1cccc(CNn2c(-c3cccc(C)c3)nc3ccccc3c2=O)c1O
 : x	0.7
> O=C(COc1ncnc2ccccc12)NCc1ccc2c(c1)OCO2
 : i	2.7
> O=C(c1ccco1)N1CCN=C1SCc1ccccc1Cl
 : x	2.8
> CCC(=O)N1CCCc2cc(S(=O)(=O)N3CCN(c4ncccn4)CC3)ccc21
 : x	2.0
> COc1ccc(N2CCN(C(=O)C3CCC(Cn4c(=S)[nH]c5ccccc5c4=O)CC3)CC2)cc1 (stereo unspecified)
 : x	3.7
> O=C(CCCn1c(=S)[nH]c2cc3c(cc2c1=O)OCO3)N1CCc2ccccc2C1
 : x	4.3
> CC(C)OCCCNC(=O)CN1CCN(Cc2ccccc2Cl)C1=O
 : x	-0.2
> O=C(CCCCn1c(=O)[nH]c2ccccc2c1=O)NC1CCN(Cc2ccccc2)CC1
 : x	-1.1
> O=C(CSc1nnc(-c2ccc(Cl)s2)o1)N1CCCc2ccccc21
 : x	0.2
> NC(Cc1ccc(Oc2ccc(O)cc2)cc1)C(=O)O (stereo unspecified)
 : i	0.3
> Cc1ccccc1-n1nc2c(c1NC(=O)c1c(-c3ccccc3Cl)noc1C)CS(=O)(=O)C2
 : x	-0.1
> Cc1ccc(NC(=O)COc2nc(C)cs2)cc1
 : i	0.7
> CCOC(=O)CSc1nc2c([nH]c3ccccc32)c(=O)n1C
 : x	-2.9
> COc1cccc(CN2C(=O)CN(C3CCCCC3)C(=O)C2c2ccc(F)cc2)c1 (stereo unspecified)
 : x	2.0
> CCCCNC(=O)CCCCCn1c(=O)[nH]c2cc(OC)c(OC)cc2c1=O
 : x	-0.5
> Cc1cc(C(=O)Cn2cncn2)c(C)n1CCc1ccc(F)cc1
 : i	0.5
> CCOC(=O)N1CCC(N2C(=O)c3ccccc3C2=O)CC1
 : x	-1.1
> CCOCCc1c(O)nc(SCC(=O)NCc2ccco2)[nH]c1=O
 : x	-2.2
> CCN(CC)S(=O)(=O)c1ccc(NC(=O)c2cccc3c2C(=O)N(CCOC)C3)cc1
 : i	0.2
> COC(=O)C1C(=O)C2=C(CC1C)NC(=O)CC2c1ccc(O)c(OC)c1 (stereo unspecified)
 : x	1.1
> CCCCN(CC)S(=O)(=O)c1ccc(C(=O)Nc2nnc(CSC)o2)cc1
 : x	-0.8

# Next entries follow:
# Sequence of screens – VCAM-1 up	26S disassembly
> CCOC(=O)N1CCC(n2c(=S)[nH]c3cc(OC)c(OC)cc3c2=O)CC1
 : i	3.0
> CCN1CCN(c2nc3c(c(=O)n(C)c(=O)n3C)n2CCSc2ncccn2)CC1
 : i	-2.4
> CCCCn1c(SCC(=O)c2ccc3c(c2)OCCO3)nnc1-c1ccco1
 : i	-0.2
> CC(C)OCCCn1c(=S)[nH]c2cc3c(cc2c1=O)OCO3
 : x	-0.9
> COc1ccc(NC(=O)N(CCCN2CCOCC2)Cc2cccnc2)c(OC)c1
 : x	-0.8
> Cc1ccc2c(c1)C(N1CCCC1=O)CC(c1ccco1)N2 (stereo unspecified)
 : i	4.3
> COc1ccc(-c2noc(N3CCC(C(=O)N4CCN(c5ccccn5)CC4)CC3)n2)cc1
 : x	0.7
> Cc1cc(N2CCN(C(c3ccccc3)c3ccc(Cl)cc3)CC2)n2ncnc2n1 (stereo unspecified)
 : x	-4.4
> CCCCN(C)CCNC(=O)c1ccc2c(c1)NC(=O)C(N1CCCCC1)S2 (stereo unspecified)
 : x	0.3
> COc1ccc(CCNC(=O)CN2C(=O)C3(OCCCO3)c3ccccc32)cc1OC
 : x	0.1
> Cc1nc(NC(=O)c2csc3ccccc23)sc1C
 : i	0.2
> CCOc1ccccc1CNC(=O)C1CCN(C(=O)c2sccc2-n2cccc2)CC1
 : x	2.0
> Cn1c(C(=O)NCCN2CCN(Cc3ccccc3)CC2)cc2c(=O)n(C)c3ccccc3c21
 : x	-3.9
> O=C(CN1CCN(Cc2ccc(F)cc2Cl)C1=O)NCCCN1CCOCC1
 : i	-1.3
> O=C(NCC1CCCO1)C1c2ccccc2C(=O)N1Cc1ccc2c(c1)OCO2 (stereo unspecified)
 : x	-0.6
> Cn1c(C(=O)NC2CCCC2)cc2c(=O)n(C)c3ccccc3c21
 : x	-2.3
> COc1cc2c(cc1OC)C(c1ccco1)CC(=O)N2 (stereo unspecified)
 : x	0.5
> Cc1ccc(CCNC(=O)C2CCCN(C(=O)c3cc4sccc4n3C)C2)cc1 (stereo unspecified)
 : x	0.4
> Cc1nc2cc(C(=O)O)ccc2n1-c1ccccc1
 : x	-1.6
> Cc1cc(NC(=O)c2ccc(S(=O)(=O)N(C)C)cc2)no1
 : x	-0.2
> Cc1nc2nc(SCC(=O)N3CCOCC3)nn2c(C)c1Cc1ccccc1
 : x	-0.9
> O=C(c1ccc2c(c1)N(Cc1ccc(F)cc1)C(=O)CS2)N1CCOCC1
 : x	3.0
> Cc1ccc(NC(=O)CC2Oc3ccc(C)cc3NC2=O)cc1 (stereo unspecified)
 : x	-1.7
> CCOC(=O)c1oc2ccccc2c1NC(=O)Cc1cccs1
 : x	-2.2
> CCOC(=O)C1C(=O)Oc2ccc3ccccc3c2C1C1CCOC1=O (stereo unspecified)
 : x	-0.6
> O=C(NCc1cccnc1)C1CCN(S(=O)(=O)N2CCOCC2)CC1
 : x	-1.0
> CC(C)N(Cc1nc2ccccc2[nH]1)C(C)C
 : x	0.8
> Cc1cc(C)cc(NC(=O)C2CCCN(S(=O)(=O)c3cnc[nH]3)C2)c1 (stereo unspecified)
 : i	-0.1
> CCOC(=O)N1CCC(NC(=O)CS(=O)(=O)Cc2nc(-c3ccccc3C)oc2C)CC1
 : i	-0.5
> Cc1noc(/C=C/N(C)C)c1S(=O)(=O)N1CCCC(C(=O)NC2CCCCC2)C1 (stereo unspecified)
 : i	0.0

# Whole records, looked up by structure. Values in the order: VCAM-1 up | 26S disassembly
# Cc1cc(NC(=O)c2ccc(S(=O)(=O)N(C)C)cc2)no1 reads x | -0.2
# Cc1cc(C)cc(NC(=O)C2CCCN(S(=O)(=O)c3cnc[nH]3)C2)c1 (stereo unspecified) reads i | -0.1

# The listing continues.
# Sequence of screens – VCAM-1 up	26S disassembly
> COc1ccc(N=Cc2c(O)[nH]c3ccccc23)cc1OC
 : x	3.2
> Cc1cc(S(=O)(=O)N(Cc2ccccc2)Cc2ccc(N(C)C)cc2)ccc1-n1cnnn1
 : i	-1.6
> OCc1nnn(-c2cccc(C(F)(F)F)c2)c1CO
 : x	-0.7
> CC(=O)c1c(C)nc(-c2ccc(Cl)cc2)nc1N=CN(C)C
 : x	2.2
> CCc1cccc(NC(=O)Cn2ncn3c(cc4ccccc43)c2=O)c1
 : x	-0.3
> O=S(=O)(Nc1cccnc1)c1ccc2c(c1)OCCO2
 : i	-0.5
> Cn1c(=O)[nH]c(=O)c2c1nc(CN1CCOCC1)n2CCc1ccccc1
 : x	0.1
> Cn1c(=N)n(CC(=O)O)c2ccccc21
 : i	2.1
> COc1ccccc1N1C(=O)CCC1(C#N)c1ccccc1 (stereo unspecified)
 : i	-2.6
> COC(=O)c1ccc(C2C(C#N)=C(N)Oc3cc(C)n(C)c(=O)c32)cc1 (stereo unspecified)
 : i	1.1
> CC1CCC(NC(=O)Cn2c(=O)[nH]c3ccsc3c2=O)CC1 (stereo unspecified)
 : x	-0.2
> CCOC(=O)N1CCC(n2c(=S)[nH]c3cc(OCC)c(OCC)cc3c2=O)CC1
 : x	0.8
> Cc1c(C(=O)Nc2ccc3c(c2)OCCO3)sc2nc(-c3ccccc3)cn12
 : x	-0.9
> O=S1(=O)C=CC(Nc2cccc(Cl)c2)C1 (stereo unspecified)
 : i	-2.2
> CCn1cc(C(C)NC(=O)COc2ccc(Cl)cc2C)c(C)n1 (stereo unspecified)
 : i	-0.8
> O=C(Cn1cc2c(n1)CCCC2)NCCCN1CCN(C2CCCCC2)CC1
 : x	-3.5
> CN(C)c1ccc(CNC2CC(C)(C)NC(C)(C)C2)cc1
 : i	0.3
> COc1ccc(C2CCCN2C(=O)Nc2ccc(F)cc2)cc1OC (stereo unspecified)
 : x	0.6
> O=C(NCc1ccco1)c1cc(-c2ccncc2)nc2ccccc12
 : x	-0.9
> Cc1cccc(N=C2NC(=O)CS2)c1C
 : i	0.7
> CCCCC(c1nnnn1C1CCCC1)N1CCN(C2CCCCC2)CC1 (stereo unspecified)
 : i	1.0
> CCC(CCC(=O)Nc1cccc(C(=O)O)c1)C(=O)O (stereo unspecified)
 : i	0.5
> CC1NC2(C(=O)N(Cc3ccccc3)c3ccccc32)C2C(=O)N(c3ccccc3)C(=O)C12 (stereo unspecified)
 : i	-0.4
> Cc1ccc(N2C(=O)c3ccc(N)cc3C2=O)cc1C
 : x	1.4
> CCCN(CCC)S(=O)(=O)c1ccc(C(=O)Nc2nnc(-c3cc(OC)cc(OC)c3)o2)cc1
 : x	1.7
> CCn1cc(SCC(=O)Nc2cc(C)on2)c2ccccc21
 : i	-1.0
> COc1ccc(OC)c(CNC(=O)C2CCCN(C(=O)N(C)C)C2)c1 (stereo unspecified)
 : x	-0.2
> COc1ccc2nc3sc(C(=O)N4CCN(C)CC4)cc3cc2c1
 : x	2.3
> CN(c1ccccc1)S(=O)(=O)c1ccc(C(=O)OCC(=O)N2CCOCC2)cc1
 : i	0.8

# Assay outcomes: PubChem BioAssay, several laboratories

# A portion of the library; count on the stated rates, not on these rows.
